Bioassay records from PubChem BioAssay.
CtBP-E1A blk – qHTS Assay for Inhibitors of the CtBP/E1A Interaction; activity change, % (concentration not given with the values); CtBP / adenovirus E1A interaction (AlphaScreen); AlphaScreen GST-E1A/His-CtBP binding, 1536-well; active compounds read low; control for the full effect not named in the record; AID 651724, 2012; 340,000 compounds, 0.49% hits; in the data active means activity change below about -65%; inconclusive means about -30% to -65%; inactive means above about -30%; also: % is scaled to controls: 0 for no effect and ±100 for the full control effect
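AlphaScreen with 125 nM GST-E1A and 125 nM His-CtBP (5X stocks) in Tris pH 8.0, 300 mM NaCl, BSA, Tween 20, TCEP. Compounds preincubated 2 h at 37 deg C, then glutathione donor/nickel acceptor beads added for 1 h at 37 deg C in dark.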
D2 ag – Beta-Arrestin HTS for Positive Allosteric Modulators of the Human D2 Dopamine Receptor: Agonists. D(2) dopamine receptor (Homo sapiens), P14416. DiscoveRx PathHunter D2 beta-arrestin, luminescence, 90 min; 100% = 57 uM dopamine signal. activation, % (test concentration not listed). 360,000 compounds, 0.084% hits; in the data active = activation above about 40%; inconclusive = about 15% to 40%; inactive = below about 15%; also: compound concentration not given in the record; the text of the record calls up to 30% inactive
Target sequence (P14416 whole entry, looked up): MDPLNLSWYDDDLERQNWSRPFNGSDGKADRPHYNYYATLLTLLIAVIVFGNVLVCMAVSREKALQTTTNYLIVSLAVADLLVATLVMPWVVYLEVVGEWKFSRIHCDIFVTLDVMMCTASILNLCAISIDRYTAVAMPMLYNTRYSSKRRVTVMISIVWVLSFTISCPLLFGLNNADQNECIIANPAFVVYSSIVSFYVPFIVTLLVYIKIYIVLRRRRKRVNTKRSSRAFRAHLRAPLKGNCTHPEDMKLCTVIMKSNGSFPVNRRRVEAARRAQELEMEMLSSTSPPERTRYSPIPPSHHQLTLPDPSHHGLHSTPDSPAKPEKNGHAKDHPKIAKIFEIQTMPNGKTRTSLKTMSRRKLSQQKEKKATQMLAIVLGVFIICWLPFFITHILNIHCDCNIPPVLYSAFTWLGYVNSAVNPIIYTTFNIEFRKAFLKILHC
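Agonist mode: compounds alone added to overnight-plated D2 PathHunter cells for 90 min at 37 C, with 57 uM final dopamine (EC100) defining full response. Beta-arrestin recruitment detected by chemiluminescent reagent, read after 1 h at ambient temperature.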
gsp antagonist – qHTS for Antagonists of gsp, the Etiologic Mutation Responsible for Fibrous Dysplasia/McCune-Albright Syndrome: qHTS; gsp-mutant cells, cAMP HTRF, 30 min; control for the full effect not named in the record; Potency, µM (titrated, usually from 76.9 µM), for inactives: top-dose activity change, negative = inhibition, hits mostly inhibitors; 340,000 compounds, 0.4% hits; active = falling curve of any shape with a large fitted effect; inconclusive = falling curve, mostly with a smaller effect; inactive = flat or rising curve; cell line not stated here;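 also: intracellular cAMP measured with PDE inhibitor Ro 20-1724 present during compound exposure; potency is read from the fitted curve at half-maximal effect; % is scaled to controls: 0 for no effect and ±100 for the full control effect; nearly all actives have a fitted effect of over 65% in size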
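HTRF cAMP read-out (cAMP-d2 plus anti-cAMP antibody-K in lysis buffer, 30 min RT). Before lysis, cells are exposed to compounds with […] for 30 min at 37C in DPBS containing Ca/Mg, BSA and Tween 20.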
Six1-Eya2 blk – qHTS Assay for Inhibitors of the Six1/Eya2 Interaction. 360,000 compounds, 0.56% hits. Homeobox protein SIX1 (Homo sapiens) + Protein phosphatase EYA2 (Homo sapiens), …. AlphaScreen GST-Six1/His-Eya2 binding, biochemical; active compounds read low; control for the full effect not named in the record. activity change, % (test concentration not listed). AID 651725, 2012; in the data active = activity change below about -65%; inconclusive = about -30% to -65%; inactive = above about -30%; also: % is scaled to controls: 0 for no effect and ±100 for the full control effect
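Homogeneous AlphaScreen proximity assay pairing GST-Six1 with His-tagged Eya2 (added as 5X mix: 250 nM and 500 nM) in 50 mM Tris pH 8.0, 300 mM NaCl, 1 mM TCEP. Glutathione donor and nickel acceptor beads; 1 h, 37 °C, dark.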
gsp agonist – qHTS for Agonist of gsp, the Etiologic Mutation Responsible for Fibrous Dysplasia/McCune-Albright Syndrome: qHTS; gsp mutant cells, cAMP HTRF, 30 min; control for the full effect not named in the record; Potency, µM (highest dose often 76.9 µM), without a hit: at the top dose activation (cAMP increase), hits mostly activators; 340,000 compounds, 0.13% hits; AID 624287, 2012; active = well fitted activation curve with a large enough effect; inconclusive = small, poorly fitted or top-dose-only effect, or another doubt; inactive = no such curve, though single readings can be large or run the other way; cell line not stated here;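 also: phosphodiesterase inhibitor Ro 20-1724 added with compounds to block cAMP breakdown; potency is read from the fitted curve at half-maximal effect; nearly all actives have a fitted effect of over 60% in size; about a fifth of the inactives were tested at one dose only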
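Cells in DMEM/10% FBS with G418 were pretreated with compounds in DMSO plus […] (300 uM stock) for 30 min at 37C. cAMP was measured by HTRF (cAMP-d2 plus anti-cAMP antibody-K) after 30 min at room temperature.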
D2 PAM – Beta-Arrestin HTS for Positive Allosteric Modulators of the Human D2 Dopamine Receptor: Potentiators; D(2) dopamine receptor (Homo sapiens), P14416; DiscoveRx D2 beta-arrestin cells, luminescence, 90 min; 100% = 57 uM dopamine signal; potentiation, % (concentration not given with the values); 360,000 compounds, 0.23% hits; AID 624464, 2012; active = potentiation of 50% or more; inconclusive = 30% to 50%; inactive = 30% or less;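 also: tested on top of an EC20 dose of dopamine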
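PathHunter beta-arrestin assay in DiscoveRx D2 cells. Compounds were added with an EC20 of dopamine (50 nM final) for 90 min at 37 deg C. Luminescence was read 1 h after detection reagent, with 57 uM dopamine as the EC100 control.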
* marks the source's active call; other numbers are inactive results; ? = inconclusive; · = not tested or not shown; [ ] = another dose, or the depositor's remark.

SMILES	CtBP-E1A blk	D2 ag	gsp antagonist	Six1-Eya2 blk	gsp agonist	D2 PAM
CCSC1=NCCN1S(=O)(=O)c1ccccc1	·	-3.5	15%	-2	?	-5
O=C(Oc1ccc2c(-c3ccccc3)cc(=O)oc2c1)c1cccs1	1	2.8	-4%	-1	?	-3
O=C(O)c1cccc(NS(=O)(=O)c2cccc3cccnc23)c1	3	-4.7	10%	-3	-49%[inhibitor]	-9
COc1ccc(-n2c(Cc3cc(=O)[nH]c(=O)[nH]3)nnc2SCC(=O)Nc2cc(C(F)(F)F)ccc2Cl)cc1	1	-3.3	1%	6	13%	-15
Cc1ccc(CN=C(Nc2ccccc2)NC2CCCCC2)cc1	-3	-1.8	0%	-4	11%[15.4 µM]	-11
COCCN(C(=O)CSc1ccc2c(c1)OCCO2)c1c(N)n(CC(C)C)c(=O)[nH]c1=O	-2	-1.1	3%	5	-17%	1
CCc1cc2c(N3CCN(c4ccccc4)CC3)ncnc2s1	-11	-0.5	50µM*	-2	-35%[inhibitor]	16
O=C(NCCc1csc(-c2ccccc2)n1)c1ccccc1F	·	-2.6	-21%	3	-20%	-19
CC(C)Cc1nc(SCC(=O)N2CC(C)OC(C)C2)c2c(=O)n(C)c(=O)n(C)c2n1 (stereo not drawn)	0	-0.8	8%	4	9%	10
COc1ccc(C2=NNC(=O)CC2)cc1	·	-2.4	?	7	2%	-9
O=C(COc1ccc(Cl)cc1)N1CCN(c2cccc(C(F)(F)F)c2)CC1	8	-3.7	-9%	4	11%	-21
COc1ccc2nc(NC(=O)Nc3ccccc3OC)sc2c1	0	2.4	-19%	5	-35%[inhibitor]	0
O=C(Nc1sc2c(c1C(=O)O)CCC2)c1ccc(F)cc1	-3	-1.0	?	-9	-3%[15.4 µM]	3
Cc1ccc2c(c1C)C(=O)C(=O)N2	16	-2.5	-2%	5	1%	-14
CC1(C)C2CCC(C2)C1(C)NC(=O)CN1CCN(Cc2ccccc2)CC1 (stereo not drawn)	-1	-2.9	6%	7	10%[15.4 µM]	-22
O=C(COc1cc2oc(=O)c3c(c2cc1Cl)CCCC3)NCc1cccnc1	1	9.0	-17%	3	-5%	-9
Cc1ccc(C)c(N2CCN(C(=O)CCNS(=O)(=O)c3ccc4c(c3)oc(=O)n4C)CC2)c1	-6	6.2	-20%	4	-11%	4
CCC1=C(OC(=O)N(CC)CC)N2C(=O)OC(=NCC(=O)OC)[C@]2(C)[C@H]2C1=CC[C@H]1C(=O)N(C)C(=O)[C@H]12	1	-1.8	8%	7	-42%[inhibitor]	-5
C=CCOc1c(CNc2nccs2)cccc1OCC	32	-2.1	5%	12	11%	-13
COc1ccc(/C=N/NC(=O)CO/N=C(\C)c2cccs2)cc1	-8	0.6	-8%	-2	-13%	-1

Continued; the last two above are carried over.
SMILES	CtBP-E1A blk	D2 ag	gsp antagonist	Six1-Eya2 blk	gsp agonist	D2 PAM
C=CCOc1c(CNc2nccs2)cccc1OCC	32	-2.1	5%	12	11%	-13
COc1ccc(/C=N/NC(=O)CO/N=C(\C)c2cccs2)cc1	-8	0.6	-8%	-2	-13%	-1
CCOC(=O)C1=CN(Cc2cccc(F)c2)S(=O)(=O)N(C)C1c1ccc2ccccc2c1 (stereo not drawn)	-1	-0.9	5%	1	·	·
O=C(NCCc1ccc(C(F)(F)F)cc1)C1CCC(=O)N(CCCN2CCCC2=O)C1 (stereo not drawn)	-2	-0.6	6%	8	15%	-3
CCCOC(=O)c1[nH]c2c(c1C)C(=O)CC(c1cccs1)C2 (stereo not drawn)	3	-3.4	28%	5	-3%[15.4 µM]	-19
O=C(NN(c1ccccc1)c1ccccc1)c1ccccc1F	5	-5.2	-7%	12	-2%[15.4 µM]	-4
CCOc1cccc(NC(=O)/C(C#N)=C\c2cn(CC(=O)O)c3ccccc23)c1	·	-1.9	-1%	-18	-20%	-5
COCCNc1nnc(SCC(=O)NC(=O)c2ccccc2)s1	4	0.8	5%	5	-2%[15.4 µM]	-7
CC(=O)Nc1cccc(NC(=O)CSc2nnc(NC(=O)C3CC3)s2)c1	-1	-2.2	1%	1	?	-18
Cc1ccc(CNC(=O)CSc2ccsc2[N+](=O)[O-])cc1	-24	-4.3	3%	2	14%	-1
Fc1c(F)c(-n2nnc3ccccc32)c(F)c(F)c1Cl	4	-2.2	6%	18	12%[15.4 µM]	-5
COc1ccc(Cc2nnc(-c3cccc(C)c3)o2)cc1OC	0	5.5	3%	11	8%	-1
O=c1c2cc(N3CCOCC3)ccc2[nH]c(=S)n1Cc1ccc(Cl)cc1	0	-3.8	-15%	0	1%	-27
Cc1ccc(N2C(N)=NC(N)=NC2(C)C)c(C)c1	4	-3.5	1%	-6	-18%	-5
NC(CSCc1ccccc1Cl)C(=O)O (stereo not drawn)	·	2.3	3%	-2	3%	-7
CC(C)(O)c1[nH]c2cc(F)ccc2c1C(C)(C)O	1	-0.3	1%	-1	·	-6
CC(Sc1ccccc1)C(=O)NN=C1CCCCCCC1 (stereo not drawn)	0	-4.4	14%	0	4%[15.4 µM]	-6
COc1ccc(CN(C)C(=O)C2CCN(C(=O)Nc3ccccc3)CC2)cc1	-1	-1.6	-1%	5	-23%	-17
O=C(COc1ccc(Cl)cc1)OCC(=O)N1CCCC1	4	-1.8	-13%	-3	8%	-4
CCCCOC(=O)C1=C(C)NC(=O)NC1c1ccccc1 (stereo not drawn)	·	-1.5	6%	7	23%	2
COC(=O)C(Cc1ccccc1)N1CCS(=O)(=O)CC1 (stereo not drawn)	-18	-14	5%	-9	1%[15.4 µM]	0
C[C@H]1COC(=O)[C@@H](Cc2ccc(F)cc2)C/C=C\C[C@@H](CC(=O)N[C@@H](CO)Cc2ccccc2)C(=O)N1	·	2.1	1%	1	?	-3

Copied from the list.
D2 PAM result of CC(=O)Nc1cccc(NC(=O)CSc2nnc(NC(=O)C3CC3)s2)c1 is entered as -18
gsp antagonist result of CCOc1cccc(NC(=O)/C(C#N)=C\c2cn(CC(=O)O)c3ccccc23)c1 is entered as -1%
CtBP-E1A blk result of Cc1ccc2c(c1C)C(=O)C(=O)N2 is entered as 16

Other entries:
SMILES	CtBP-E1A blk	D2 ag	gsp antagonist	Six1-Eya2 blk	gsp agonist	D2 PAM
COc1ccc2oc(=O)c(/C(N)=N/NC(=O)c3ccncc3)cc2c1	-18	1.2	-2%	-20	6%[15.4 µM]	-1
CCCc1cc(=O)[nH]c(SCC(=O)N2CCN(S(=O)(=O)c3ccc(Cl)cc3)CC2)n1	44	0.7	-13%	33	?	-15
O=C(COC(=O)c1ccc(Br)o1)Nc1ncc(Cl)cc1Cl	-11	-3.7	-2%	1	-14%	-4
C=CCc1c(C)c(C#N)c2nc3ccccc3n2c1N1CCCCC1	7	-3.3	?	7	3%	-8
COc1ccc(-c2noc(N3CCC(C(=O)NCCCN4CC(C)CC(C)C4)CC3)n2)cc1 (stereo not drawn)	·	-4.7	10%	22	-22%	-4
Cc1ccc2nccc(C(=O)N3CCCC(Nc4ccc(C)c(C)c4)C3)c2c1 (stereo not drawn)	·	-4.4	4%	-12	2%	-6
Cc1ccc(CNC(=O)c2csc3c2CCCCC3)cc1	0	-0.9	-3%	6	5%	-6
CCc1nnc(NC(=O)c2cc(S(=O)(=O)N3CCCCC3)ccc2N2CCOCC2)s1	-6	-0.7	1%	2	8%	-18
CCOc1ccc2nc(SCCNS(=O)(=O)c3ccccc3)sc2c1	3	-1.8	-33%	-13	-2%[15.4 µM]	-11
S=C(NCc1ccco1)N/N=C/c1ccncc1	-2	0.0	-5%	1	-60%[inhibitor][15.4 µM]	-2
O=[N+]([O-])c1ccc(Oc2cnc3ccccc3n2)cc1	-1	3.5	6%	2	-2%[15.4 µM]	5
CCSc1nc2c(c(=O)[nH]1)C(c1ccc(C)cc1)C1=C(CCCC1=O)N2 (stereo not drawn)	·	7.2	7%	6	-9%[15.4 µM]	-4
CCN(CC)C(=O)c1cn(CC)c(=O)c2cc(OC)c(OC)cc12	3	-1.7	1%	4	23%	-8
CCCn1c(=NC(C)=O)c(C(=O)OCC)cc2c(=O)n3ccccc3nc21	3	3.6	-2%	0	-19%	-10
COc1ccc(NC(=O)Cc2coc3cc(C)c(C(C)C)cc23)cc1S(=O)(=O)N1CCOCC1	-12	-0.1	-19%	-11	-15%	-4
COc1ccccc1NC(=S)N(Cc1cccnc1)Cc1ccccc1Cl	8	-5.5	-22%	-1	-14%[15.4 µM]	3
O=C(O)CCS(=O)(=O)Cc1ccccc1F	-1	-2.2	17%	2	-5%	-12
COc1cc(NC(=O)CSc2nc(=O)n(CCN3CCOCC3)c3c2CCC3)cc(OC)c1	-10	-1.5	-10%	4	0%[15.4 µM]	-1
Cc1nc(SCC(=O)NC2CCCC2)c2c(C)c(C)sc2n1	4	-1.4	12%	-2	20%	-3
COc1ccc(/C=N/N2C(=N)SCC2=O)cc1	1	-4.8	-5%	13	2%	-4
CC1=NN(C(N)=S)C(=O)C1N=Nc1cccc(Cl)c1C (stereo not drawn)	·	-0.7	0%	0	-3%	3
Cc1cc(C(=O)COC(=O)c2ccc(N)c([N+](=O)[O-])c2)c(C)n1-c1ccc2c(c1)OCO2	·	6.7	-14%	-18	-12%	5
COCCNC(=O)C(c1ccc(C)cc1)N(C(=O)CCC(=O)Nc1ccccn1)C1CCCCC1 (stereo not drawn)	-6	-4.5	7%	6	-3%[15.4 µM]	-6
COc1ccc(S(=O)(=O)N2CCOC2CNC(=O)C(=O)NCCc2ccc(OC)c(OC)c2)cc1 (stereo not drawn)	4	4.5	-9%	-4	23%	9
CC1(C(=O)Nc2ccc3c(c2)OCO3)CCN1Cc1ccccc1OC(F)F (stereo not drawn)	-6	-4.1	·	-21	·	-15
CC(C)CCNC(=O)CSc1nc2ccccc2s1	4	-5.6	10%	5	4%	-10
Cc1onc(-c2ccccc2Cl)c1C(=O)NNC(=O)c1ccccc1F	-4	-1.4	7%	2	-3%[15.4 µM]	9
CC(=O)c1cccc(OC(=O)c2ccccc2)c1	3	1.6	2%	9	-8%	0
Cc1ccc(/C=C/C(=O)OCC(=O)NCCN2C(=O)CSC2=O)o1	-17	-4.5	5%	6	20%[15.4 µM]	-5
Cc1ccc(NS(=O)(=O)c2ccc(C(=O)N3CCCN(C)CC3)cc2)cc1	0	-0.1	5%	3	8%	-5
Cc1ccc(CCNC(=O)C2CCC(=O)N(CC3CCCCC3)C2)cc1 (stereo not drawn)	21	-1.3	7%	7	-5%[15.4 µM]	-9
CCOc1ncccc1C(=O)OCC(=O)c1ccccc1	2	0.0	1%	7	-21%	-2
